# Screens (PubChem)
# DUX4 inh = inhibitors of DUX4-driven ZSCAN4 reporter expression, primary screen, 293T cells, Gaussia and Italica luciferase. 293T-iDUX4 ZSCAN4-Gaussia luciferase reporter, 24 h; active compounds read low. activity change, negative = inhibition, % (test concentration not listed). 37,000 compounds, 0.8% hits. AID 1224904, 2016;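 active = -10% or lower and over 25 points stronger than a control reporter; inconclusive = -10% or lower with a smaller gap; inactive = above -10%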;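 also: 0% = median of neutral control wells and -100% = median of positive control wells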
# DUX4 inh difference = recorded beside DUX4 inh, whose call it bears; Gaussia minus Italica difference, %; measured here: selective DUX4 reporter inhibition;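 worked out from the two reporters; negative = selective loss of the DUX4 reporter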
# DUX4 inh control = recorded beside DUX4 inh, whose call it bears; activity change, negative = inhibition, %; measured here: Italica tet-on control reporter;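 0 = neutral control and -100 = positive control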
# Starred values were filed as active, the others as inactive; ? = inconclusive; nt = no result given. A portion of the library; count on the stated rates, not on these rows.
DUX4 inh | DUX4 inh difference | DUX4 inh control | Molecule
0 | -2 | 2.2 | O=C(C1CCC1)N1CC2(C1)[C@H](c1ccccc1)[C@H](CO)N2C(=O)NC1CCCC1
-1 | 2 | -3.2 | O=C(C1CCCCC1)N1C[C@H]2[C@@H](c3ccccc31)[C@H](CO)N2C(=O)Cc1ccccn1
3 | 2 | 0.5 | COc1ccc(CN(C)C[C@@H]2OCCCC[C@@H](C)Oc3ccc(NS(C)(=O)=O)cc3C(=O)N([C@H](C)CO)C[C@H]2C)cc1
0 | 2 | -1.6 | CCN(C[C@H]1[C@@H](c2ccccc2)[C@H](CO)N1C(=O)COC)S(C)(=O)=O
-1 | 3 | -4.1 | CO[C@H]1CC[C@H]2CCOc3ccc(C#N)cc3C(=O)N(C)C[C@@H](OC)[C@H](C)C(=O)N(C)C[C@H]1O2
-4 | 2 | -6.1 | C[C@@H]1CN([C@H](C)CO)C(=O)c2ccccc2-c2ccccc2CO[C@H]1CN(C)C(=O)Nc1ccc(-c2ccccc2)cc1
-1 | -1 | 0.3 | O=C(O)C[C@@H]1CC[C@H](NC(=O)CCN2CCCCC2)[C@@H](CO)O1
-1 | -7 | 6.5 | O=C(NCC[C@H]1CC[C@H](NC(=O)C2CC2)[C@H](CO)O1)Nc1ccc(C(F)(F)F)cc1
18 | 20 | -2.2 | O=C(C[C@H]1CC[C@H]2[C@@H](COC[C@@H](O)CN2S(=O)(=O)c2cccc(F)c2)O1)NCCCN1CCOCC1
6 | -3 | 8.3 | COCCNC(=O)C[C@@H]1CC[C@H]2[C@H](COc3ccc(NC(=O)Cc4ccccc4)cc3C(=O)N2C)O1
18 | 4 | 14 | CC(C)C#Cc1ccc([C@H]2[C@H]3CN(C(=O)Cc4cccnc4)CC(=O)N3[C@H]2CO)cc1
6 | 8 | -1.9 | Cc1ccccc1-c1ccc([C@H]2[C@@H](CO)N3C(=O)CN(C(=O)c4ccccn4)C[C@@H]23)cc1
11 | 14 | -3.1 | O=C(C[C@H]1C[C@H]2c3cc(NS(=O)(=O)c4ccc(F)cc4)ccc3O[C@H]2[C@@H](CO)O1)NCc1ccccn1
0 | -2 | 2.4 | CN1C(=O)c2cc(NC(=O)c3cnccn3)ccc2OC[C@H]2O[C@@H](CC(=O)NC3CCC3)CC[C@H]21
? | nt | nt | CCC(=O)N1CC2(C1)[C@H](c1ccccc1)[C@H](CO)N2Cc1cccc(Cl)c1
-2 | 0 | -1.8 | COC(=O)[C@@H]1[C@@H](CO)[C@@H]2Cn3c(ccc(-c4ccc(F)cc4)c3=O)[C@@H]2N1C(=O)C1CCC1
-3 | -3 | 0.2 | CC(=O)N1[C@H](CNC(=O)C2CC2)[C@H](c2ccc(-c3ccccc3)cc2)[C@@H]1CO
17 | -1 | 18 | N#C[C@@H]1[C@H](c2ccccc2-c2cccc(F)c2)[C@H](CO)N1C(=O)C1CC1
3 | 2 | 0.5 | CC(C)C(=O)Nc1ccc2c(c1)C(=O)N(C)[C@H]1CC[C@H](CC(=O)NCCc3ccccc3)O[C@@H]1CO2
6 | 4 | 1.9 | CC(C)NC(=O)N(C)C[C@@H]1Oc2cc(-c3ccccc3)ccc2S(=O)(=O)N([C@@H](C)CO)C[C@@H]1C
4 | -1 | 5.2 | O=C(c1cccnc1)N1CC(=O)N2[C@H](CO)[C@H](c3ccc(/C=C/c4ccccc4)cc3)[C@@H]2C1
6 | 6 | -0.4 | CCCNC(=O)N1C[C@@H](O)COC[C@@H]2O[C@H](CC(=O)N[C@@H]3CCN(Cc4ccccc4)C3)CC[C@H]21
-1 | -5 | 4.1 | COc1ccccc1-c1ccc2c(c1)O[C@H](CN(C)C(=O)Nc1cccc(F)c1)[C@@H](C)CN([C@@H](C)CO)S2(=O)=O
2 | -6 | 8.5 | CCC(=O)N1C[C@H](O)COC[C@H]2O[C@@H](CC(=O)NCc3ccc(Oc4ccccc4)cc3)CC[C@@H]21
-2 | -6 | 4.5 | CCCN1C[C@@H](C)[C@@H](OC)CN(C)C(=O)c2cc(NC(=O)c3ccccc3F)ccc2OC[C@@H]1C
15 | 4 | 10 | CCCC(=O)N1CC2(C1)CN(C(=O)Nc1c(C)noc1C)[C@@H](CO)c1c2c2ccc(OC)cc2n1C
18 | 12 | 6.0 | COc1cccc(NC(=O)N2C[C@@H](O)COC[C@H]3O[C@@H](CC(=O)NCCCN4CCOCC4)CC[C@@H]32)c1
-3 | -6 | 3.5 | O=C(C[C@H]1CC[C@@H]2NC[C@H](O)COC[C@H]2O1)NC1Cc2ccccc2C1
-2 | -5 | 2.9 | O=C(CC(F)(F)F)N1C[C@@H]2[C@H](c3ccccc31)[C@@H](CO)N2C(=O)CN1CCOCC1
8 | 4 | 3.5 | COCC(=O)N1CC2(C1)[C@H](c1ccccc1)[C@@H](CO)N2C(=O)c1cccnc1
0 | -3 | 3.2 | O=C(O)C[C@@H]1C[C@H]2c3cc(NC(=O)Nc4ccccc4)ccc3O[C@H]2[C@H](CO)O1
-4 | 4 | -8.2 | CN(C)Cc1cn(CC[C@@H]2CC[C@H](NS(=O)(=O)c3ccc(-c4ccccc4)cc3)[C@@H](CO)O2)nn1
3 | -2 | 5.1 | Cc1ccc(S(=O)(=O)N2C[C@H](O)COC[C@@H]3O[C@H](CC(=O)NCC4CCCCC4)CC[C@H]32)cc1
-5 | 0 | -5.3 | CCCC(=O)Nc1ccc2c(c1)C(=O)N(C)[C@@H]1CC[C@H](CC(=O)NCC3CCCCC3)O[C@H]1CO2
? | nt | nt | CC(C)CC#Cc1ccc([C@@H]2[C@H]3CN(C(=O)Nc4ccccc4)CCCCN3[C@H]2CO)cc1
4 | -2 | 6.3 | C[C@@H]1CN([C@@H](C)CO)C(=O)c2cccc(NC(=O)c3cnccn3)c2O[C@@H]1CN(C)C(=O)NC1CCCCC1
-2 | 3 | -4.7 | CCNC(=O)[C@@H]1[C@@H](CO)[C@@H]2Cn3c(ccc(-c4ccccc4)c3=O)[C@@H]2N1CC
-4 | -6 | 1.3 | COCCNC(=O)C[C@H]1CC[C@@H]2[C@@H](COc3ccc(NC(=O)c4ccno4)cc3C(=O)N2C)O1
3 | -1 | 4.0 | CCc1cnc(N2[C@H](C#N)[C@H](c3ccc(C#CCC4CCCC4)cc3)[C@@H]2CO)s1
-5 | -2 | -3.4 | O=C(C1CC1)N1CCCCN2[C@H](CO)[C@@H](c3ccc(C#CC4CCCC4)cc3)[C@@H]2C1
-1 | -5 | 3.5 | CN(C)C(=O)C[C@H]1C=C[C@H](NC(=O)Nc2cccc(F)c2)[C@@H](CO)O1
? | nt | nt | Cc1cccc(S(=O)(=O)N2CCCCN3[C@H](CO)[C@@H](c4ccc(C#C[C@H](C)O)cc4)[C@H]3C2)c1
2 | -2 | 3.9 | CO[C@@H]1CN(C)C(=O)c2ccc(NC(=O)c3cccc(F)c3)cc2OC[C@@H](C)N(C(C)=O)C[C@@H]1C
-3 | 0 | -3.1 | CN1[C@H](C(=O)NC2CCCC2)[C@@H](CO)[C@@H]2Cn3c(ccc(/C=C/c4ccccc4)c3=O)[C@@H]21
1 | -2 | 3.2 | C[C@H]1CCCCO[C@@H](CN(C)CC2CC2)[C@@H](C)CN([C@@H](C)CO)C(=O)c2cc(NC(=O)c3ccccc3)ccc2O1
? | nt | nt | COc1cccc(C(=O)Nc2ccc3c(c2)OC[C@@H](C)N(CCc2ccccc2)C[C@@H](C)[C@H](OC)CN(C)C3=O)c1
4 | 6 | -1.7 | COC(=O)[C@@H]1[C@@H](CO)[C@@H]2Cn3c(ccc(C4=CCCC4)c3=O)[C@@H]2N1C(=O)C1CC1
-6 | -4 | -1.7 | CCCNC(=O)N1[C@@H]2CN(C(=O)Nc3ccc(F)cc3)c3ccccc3[C@@H]2[C@@H]1CO
-3 | 4 | -6.8 | O=C(NCC(F)(F)F)[C@H]1[C@H](CO)[C@H]2Cn3c(cccc3=O)[C@H]2N1C(=O)C1CCC1
0 | 3 | -2.5 | COc1cccc(NC(=O)N(C)C[C@@H]2Oc3cc(-c4cccc(C(=O)N(C)C)c4)ccc3S(=O)(=O)N([C@H](C)CO)C[C@H]2C)c1
4 | 2 | 2.1 | CCCNC(=O)N1[C@@H]2Cn3c(ccc(-c4ccccc4OC)c3=O)[C@H]1[C@@H](C(=O)N(C)C)[C@@H]2CO
7 | -2 | 8.5 | CCCNC(=O)N1CCC2(CC1)CN(C(=O)c1ccccc1)[C@@H](CO)c1[nH]c3cc(OC)ccc3c12
5 | 5 | 0.0 | O=C(C1CCOCC1)N1C[C@@H]2[C@H](c3ccccc31)[C@@H](CO)N2Cc1ccc(Cl)cc1
1 | 3 | -2.1 | COc1ccc(-c2ccc([C@H]3[C@H](C#N)N(C(=O)NC(C)C)[C@H]3CO)cc2)cc1
0 | -5 | 5.0 | COCCNC(=O)C[C@@H]1CC[C@H]2[C@H](COc3ccc(NS(=O)(=O)c4ccc(Cl)cc4)cc3C(=O)N2C)O1
-3 | -4 | 1.2 | CC(C)NC(=O)Nc1ccc2c(c1)CC(=O)N([C@H](C)CO)C[C@@H](C)[C@H](CN(C)Cc1ccncc1)O2

# Compound profiles, as listed above:
# `O=C(C1CCOCC1)N1C[C@@H]2[C@H](c3ccccc31)[C@@H](CO)N2Cc1ccc(Cl)cc1` is entered as DUX4 inh: 5; DUX4 inh difference: 5; DUX4 inh control: 0.0
# `O=C(NCC(F)(F)F)[C@H]1[C@H](CO)[C@H]2Cn3c(cccc3=O)[C@H]2N1C(=O)C1CCC1` is entered as DUX4 inh: -3; DUX4 inh difference: 4; DUX4 inh control: -6.8

# (more compounds)
DUX4 inh | DUX4 inh difference | DUX4 inh control | Molecule
-4 | 0 | -4.5 | CN(C)C(=O)c1cc2c(c(-c3cccc(-c4ccc(F)cc4)c3)n1)[C@@H](CCO)N([S@](=O)C(C)(C)C)C2
-5 | 0 | -4.7 | COc1cccc(S(=O)(=O)N2C[C@@H](O)COC[C@@H]3O[C@@H](CC(=O)Nc4ccccc4)CC[C@H]32)c1
4 | 7 | -3.2 | CO[C@@H]1CN(C)C(=O)c2cc(NC(=O)c3ccccc3F)ccc2OC[C@@H](C)N(CC2CCOCC2)C[C@@H]1C
2 | 0 | 1.7 | N#C[C@H]1[C@@H](c2ccc(-c3ccncc3)cc2)[C@@H](CO)N1C(=O)C1CCCC1
-3 | 0 | -2.6 | CCNC(=O)C[C@@H]1CC[C@H]2[C@H](COc3ccc(NS(C)(=O)=O)cc3C(=O)N2C)O1
10 | 12 | -1.8 | C[C@@H]1CN([C@H](C)CO)C(=O)CCCn2cc(nn2)CO[C@H]1CN(C)Cc1cccc2c1OCCCO2
5 | -3 | 8.4 | COc1ccc2c3c(n(C)c2c1)[C@H](CO)N(C(=O)c1cccnc1)CC31CN(S(C)(=O)=O)C1
1 | -3 | 4.2 | Cc1cccc(S(=O)(=O)N2CC[C@@H]3[C@H](CO)N(C)c4ccc(-c5cccc(C#N)c5)cc4[C@@H]32)c1

# 3 compounds from above, sorted by length of the SMILES, rising.
DUX4 inh | DUX4 inh difference | DUX4 inh control | Molecule
5 | -3 | 8.4 | COc1ccc2c3c(n(C)c2c1)[C@H](CO)N(C(=O)c1cccnc1)CC31CN(S(C)(=O)=O)C1
10 | 12 | -1.8 | C[C@@H]1CN([C@H](C)CO)C(=O)CCCn2cc(nn2)CO[C@H]1CN(C)Cc1cccc2c1OCCCO2
-4 | 0 | -4.5 | CN(C)C(=O)c1cc2c(c(-c3cccc(-c4ccc(F)cc4)c3)n1)[C@@H](CCO)N([S@](=O)C(C)(C)C)C2

# Remaining list, next part:
DUX4 inh | DUX4 inh difference | DUX4 inh control | Molecule
8 | -1 | 8.6 | CN1c2ccc(-c3ccc(C#N)cc3)cc2[C@@H]2[C@@H](CCN2C(=O)Cc2ccccn2)[C@@H]1CO
-5 | 3 | -8.1 | O=C(c1cnccn1)N1CC(=O)N2[C@H](CO)[C@@H](c3ccc(/C=C/c4ccccc4)cc3)[C@H]2C1
-9 | -10 | 0.5 | O=C(C[C@H]1CC[C@H]2[C@@H](COC[C@H](O)CN2C(=O)Nc2cccc(F)c2)O1)NCc1ccccc1Cl
-2 | 1 | -2.2 | C[C@H](CO)N1C[C@H](C)[C@@H](CN(C)C(=O)Nc2ccc3c(c2)OCO3)Oc2c(NC(=O)Cc3cn(C)c4ccccc34)cccc2C1=O
-2 | -3 | 1.2 | C[C@H](NC(=O)C[C@H]1CC[C@H]2[C@@H](COC[C@@H](O)CN2C(=O)Nc2cccc(Cl)c2)O1)c1ccccc1
4 | 2 | 1.5 | C[C@H](CO)N1C[C@H](C)[C@H](CN(C)C(=O)c2ccncc2)OCCCC[C@H](C)Oc2ccc(NC(=O)NC3CCCCC3)cc2C1=O
3 | 7 | -4.2 | CS(=O)(=O)Nc1ccc2c(c1)[C@H]1C[C@@H](CC(=O)NCc3ccccn3)O[C@H](CO)[C@H]1O2
? | nt | nt | O=C(c1cccc(F)c1)N1CC[C@@H]2[C@@H](CO)Nc3ccc(-c4ccccc4F)cc3[C@@H]21
0 | 1 | -0.7 | C[C@@H]1CN([C@@H](C)CO)C(=O)c2cccc(N(C)C)c2O[C@@H]1CN(C)Cc1ccc2c(c1)OCO2
4 | 7 | -3.0 | O=C(NCCc1ccccc1)[C@@H]1[C@@H](CO)[C@@H]2Cn3c(cccc3=O)[C@H]1N2Cc1ccccn1
7 | 6 | 1.1 | C[C@@H]1CN([C@@H](C)CO)C(=O)CCCn2nncc2CO[C@@H]1CN(C)S(=O)(=O)c1cccc(F)c1
24 | 57 | -32 | O=C(Nc1ccc(F)cc1)N1CCCCN2[C@H](C1)[C@H](c1ccc(C#CC3CC3)cc1)[C@@H]2CO
22 | 4 | 19 | COc1ccccc1-c1ccccc1[C@H]1[C@@H](CO)N(C(=O)C2CCOCC2)[C@H]1C#N
14 | 13 | 0.3 | COc1ccc2c3c([nH]c2c1)[C@@H](CO)N(C(=O)c1cnccn1)CC31CN(C(=O)c2cnccn2)C1
